# CDC25B-CDK2 inh: human CDC25B-CDK2/CyclinA binding inhibition; z-score (test concentration not listed); hit rate 0.72% among 94,000; P30305+P24941; HTRF CDC25B-CDK2/CyclinA binding, anti-His/anti-Flag; stronger effect = higher value;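 further: score is relative to mean and SD of negative controls; strong numbers were not always called active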
# HIV TAR-Tat: HIV-1 TAR-Tat binding disruption; z-score (test concentration not listed); hit rate 0.6% among 100,000; HIV-1 TAR RNA, Tat peptide displacement FRET; stronger effect = higher value;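 further: score is relative to mean and SD of negative controls; some compounds called inactive have numbers as strong as hits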
# * hit, by the source's call; nt = no result given.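 How the source made its calls: active means z-score from 3 up in half or more of its runs; inactive means the rest.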
# Results follow in this order: CDC25B-CDK2 inh	HIV TAR-Tat
- COC(=O)Nc1ccc(S(=O)(=O)N2CCCC(C(=O)NC3CCCCC3)C2)cc1 (stereo not drawn)
    -1.7	2.2
- Cc1ccccc1Nc1c(-c2ccc(Br)cc2O)nc2sccn12
    -0.77	-0.21
- COc1ccc(NC2CC(=O)N(c3ccccc3OC)C2=O)cc1 (stereo not drawn)
    -0.92	0.46
- Cc1cc(C)nc(SCCn2c(N3CCC(C)CC3)nc3c2c(=O)n(C)c(=O)n3C)n1
    -0.9	-0.66
- Cc1ccc(NS(=O)(=O)c2cc(-c3noc(C)n3)cs2)c(C)c1
    nt	0.53
- COc1cccc(-c2nc(SCc3cc(=O)n4c5c(sc4n3)CCCC5)n[nH]2)c1
    nt	-0.3
- CC1CC(C)CN(c2nc(N3CC(C)OC(C)C3)nc(N)c2[N+](=O)[O-])C1 (stereo not drawn)
    nt	1.7
- CC(C)CC(=O)NCC(c1ccco1)N(C)C (stereo not drawn)
    0.84	0.13
- CCn1c2c(c(=O)n3ncc(C(=O)O)c13)CN(C)CC2
    -0.31	0.77
- CCC(C(=O)NC(C)C)n1nc(C)c2sc3ccccc3c2c1=O (stereo not drawn)
    -0.25	1.4
- COCCNC(=O)c1cccn1-c1nnc(N2CCCCC2)s1
    nt	0.16
- Cc1c(C(=O)N(C)C2CCCCC2)sc2nc3n(c(=O)c12)CCCC3
    nt	0.79
- Cn1c(=O)c2c(SCC(=O)Nc3ccc(F)cc3)nc(-c3ccco3)nc2n(C)c1=O
    -2.1	nt
- O=C(NCCCN1CCN(c2ccccc2)CC1)Nc1ccc(F)cc1F
    -1.5	2.1
- O=C(Nc1cccc(Br)c1)C1CC2CSCN2C12C(=O)Nc1ccccc12 (stereo not drawn)
    nt	0.5

# Profiles, looked up by structure:
# CCC(C(=O)NC(C)C)n1nc(C)c2sc3ccccc3c2c1=O (stereo not drawn) in the list: CDC25B-CDK2 inh: -0.25; HIV TAR-Tat: 1.4
# Cc1cc(C)nc(SCCn2c(N3CCC(C)CC3)nc3c2c(=O)n(C)c(=O)n3C)n1 in the list: CDC25B-CDK2 inh: -0.9; HIV TAR-Tat: -0.66
# CC(C)CC(=O)NCC(c1ccco1)N(C)C (stereo not drawn) in the list: CDC25B-CDK2 inh: 0.84; HIV TAR-Tat: 0.13

# (continued)
# Results follow in this order: CDC25B-CDK2 inh	HIV TAR-Tat
- Cc1ccccc1C1CC(=O)Nc2c(-c3ccccc3)csc21 (stereo not drawn)
    nt	2
- CO/N=[N+](\[O-])C(Cc1ccccc1F)/[N+]([O-])=N/OC (stereo not drawn)
    0.16	nt
- CCCN1C2=NCCN2c2cc(C)c(C)cc21
    -0.36	nt
- CC(C)(C)c1ccc(CN(C(=O)c2cc(-c3ccccc3)on2)C2CCS(=O)(=O)C2)cc1 (stereo not drawn)
    0.14	1.7
- O=C(NCC1CCCO1)c1ccc2nc(N3CCOCC3)sc2c1 (stereo not drawn)
    -0.89	1.4
- CCCCC12CN3CC(C)(CN(C1)C3c1c(O)ccc3ccccc13)C2=O (stereo not drawn)
    -2.4	-1.3
- O=C(Nc1cc(=O)c2ccccc2o1)N1CCOCC1
    1.9	1.5
- Cc1ccc2onc(CNC(=O)NC(C)CCc3ccco3)c2c1 (stereo not drawn)
    nt	0.19
- O=C(CN1CCCCC1)Nc1cc(C(F)(F)F)cc(C(F)(F)F)c1
    -0.64	nt
- COc1ccc(N2C(=O)c3nccnc3C2=O)cc1OC
    -1.4	1.1
- COc1cc(Cl)c(NC2c3ncccc3C(=O)N2Cc2cccs2)c(OC)c1 (stereo not drawn)
    -0.96	1.4
- NS(=O)(=O)c1ccc(NC(=O)c2cc(=O)c3ccccc3o2)cc1
    -1.7	2.2
- O=C(Nc1ccc2oc(-c3cccc4ccccc34)nc2c1)c1ccc([N+](=O)[O-])cc1
    -0.55	nt
- CCSc1nnc(NC(=O)c2cc(=O)c3ccccc3o2)s1
    -1.6	-0.11
- Cc1ccc(S(=O)(=O)N2CCN(c3cc(N4CCN(C)CC4)nc(C)n3)CC2)cc1
    -0.55	-0.28
- Cc1cc(C)c(S(=O)(=O)N2CCCC2c2cccs2)cc1C (stereo not drawn)
    -2.2	0.9
- CCc1cccc(NS(=O)(=O)c2cc(/C=C/c3onc(C)c3[N+](=O)[O-])ccc2C)c1
    nt	0.77
- O=S(=O)(NCCc1csc2nc(-c3cccc(F)c3)nn12)c1ccc(Br)cc1
    nt	0.8
- NC(=O)c1c(NC(=O)c2ccc3c(c2)OCCCO3)sc2c1CCCC2
    nt	1.7
- O=c1c2sccc2n(Cc2ccc(F)cc2)c(=O)n1-c1ccc(F)cc1
    0.46	nt
- N#Cc1c(NC(=O)c2cc(=O)c3cc(Cl)ccc3o2)sc2c1CCCC2
    0.16	1.6
- Cc1csc(NC(=O)CSc2nc(C(C)C)nc3c2c(=O)n(C)c(=O)n3C)n1
    nt	1.6
- COc1cc(OC)c(NC(=O)c2cc(S(=O)(=O)N3CCOCC3)cn2C)cc1Cl
    nt	1.4
- CCOC(=O)C1=C(C)NC2=C(C(=O)c3ccccc32)C1c1cccc(F)c1 (stereo not drawn)
    -1.7	-0.99
- O=c1ccc(-c2ccc(S(=O)(=O)N3CCN(Cc4ccc5c(c4)OCO5)CC3)s2)n[nH]1
    nt	1.3
- CSc1nnc2c(n1)OC(c1ccc(O)c(O)c1)Nc1ccc(Br)cc1-2 (stereo not drawn)
    -3.9	nt
- Cc1ccc(C2C(=O)N(C3CCCCCC3)CC(=O)N2CCc2ccccc2)cc1 (stereo not drawn)
    -0.57	nt
- Cc1ccc(S(=O)(=O)N2CCCC(c3nc(-c4cccc(C)c4)no3)C2)cc1 (stereo not drawn)
    nt	2.4
- CCOc1ccc(S(=O)(=O)[C@H]2CS(=O)(=O)C[C@@H]2N2CCC(C(N)=O)CC2)cc1
    -0.82	-1.1
- Cc1cccc(N2CCN(c3c(-c4ccc5c(c4)OCC(=O)N5)c(=O)c3=O)CC2)c1C
    nt	-0.11
- CCOC(=O)CN1CCCC1=C(C#N)C#N
    -0.75	nt
- Cc1noc(NC(=O)NC(=O)c2cc(F)c(N(C)C)c(F)c2)c1C
    -0.41	nt
- O=C(CCc1nc2sc3c(c2c(=O)[nH]1)CCCC3)NCc1ccc(C(F)(F)F)cc1
    -0.89	1.2
- CCN1C(=O)c2ccccc2Sc2ccc(NC(=O)N3CCOCC3)cc21
    1	0.26
- Cc1[nH]c(=O)[nH]c(=O)c1NS(C)(=O)=O
    -1.8	0.73
- CCc1nc2sc3c(NCCCO)ncnc3c2c2c1CCCC2
    0.84	nt
- COc1cc2ncnc(Sc3ccccn3)c2cc1OC
    -0.26	nt
- Cc1c(C(=O)N2CCN(c3ccccn3)CC2)sc2ncnc(N3CCN(c4ccccc4)CC3)c12
    nt	1.3
- c1cc(-c2nc3ccccc3[nH]2)nc(-c2nc3ccccc3[nH]2)c1
    0.8	-1.4
- NCc1cccn1Cc1ccccc1F
    -0.33	0.57
- CCc1nn2c(=O)cc(COC(=O)COc3ccc(F)cc3)nc2s1
    nt	-0.99
- COc1ccc(Cl)cc1NC(=O)C1CC2CCCN2C12C(=O)Nc1ccccc12 (stereo not drawn)
    nt	-1.5
- COc1ccc(C(=O)c2c(N)sc3c2CCN(C(=O)OC(C)(C)C)C3)cc1
    0.42	nt
- Cc1ccn2c(NC3CCCCC3)c(-c3ccsc3)nc2c1
    -2.8	nt
- COc1ccc(OC)c(C2SCCN2C(=O)c2cc3cc(Br)ccc3oc2=O)c1 (stereo not drawn)
    0.27	nt
- COc1cc(C)ccc1OCCSc1nnc(-c2cccs2)o1
    -0.24	1.3
- Cc1csc2nc(CSCC(=O)Nc3ccc(F)cc3)cc(=O)n12
    nt	0.92
- CCOc1ccc(/C(O)=C2\C(=O)C(=O)N(c3nnc(C)s3)C2c2ccc(C)cc2)cc1 (stereo not drawn)
    -2.5	nt
- Cc1ccc(C2CC(=O)C3=C(C2)Nc2ccccc2NC3c2cc3c(cc2Cl)OCO3)cc1 (stereo not drawn)
    -2.2	nt
- COc1ccc2[nH]c(C(=O)Nc3ccc(I)cc3F)cc2c1
    -5.5	nt
- O=C(O)c1nccnc1C(=O)N1CCCN(c2c(Cl)cncc2Cl)CC1
    -1.1	nt
- CC(=NCCc1ccccc1)C1CCOC1=O (stereo not drawn)
    1.1	nt
- CC1Cc2ccccc2N1C(=O)CSc1nc(-c2ccccc2Cl)nc2cc(=O)[nH]n12 (stereo not drawn)
    nt	-1.2
- COCCn1c(SCC(=O)Nc2ccc3c(c2)OCCO3)nc2c(c1=O)SC(C)C2 (stereo not drawn)
    -0.57	nt
- Cc1cccn2c(=O)c(NC(=O)c3ccc(Cl)cc3)cnc12
    2.2	0.84
- O=C(NC1CC1)NC1COc2ccccc2C1 (stereo not drawn)
    nt	1.3
- O=C(COCc1cc(-c2cccs2)on1)NC1CCCCC1
    nt	0.3
- O=S(=O)(c1ccc2ccccc2c1)N1CCCc2ccccc21
    -0.25	nt
- Cc1nnc2c(Nc3ccccc3Br)nc3ccccc3n12
    -1.5	-0.04
- O=C(Nc1ccc(F)c(F)c1)NC1COc2ccccc2C1 (stereo not drawn)
    nt	1.6

# Two entries drawn at random from the list so far, as already listed:
# Results follow in this order: CDC25B-CDK2 inh	HIV TAR-Tat
- Cc1nnc2c(Nc3ccccc3Br)nc3ccccc3n12
    -1.5	-0.04
- O=C(COCc1cc(-c2cccs2)on1)NC1CCCCC1
    nt	0.3

# Additional compounds:
# Results follow in this order: CDC25B-CDK2 inh	HIV TAR-Tat
- CC(=O)CSc1nsc(SCC(C)=O)c1C#N
    -8.9	nt
- O=S1(=O)N=CN(Cc2c(F)cccc2Cl)c2ccccc21
    nt	1.1
- Cc1ccc2c(C)c(C(=O)N(Cc3ccc(N(C)C)cc3)C3CCS(=O)(=O)C3)oc2c1 (stereo not drawn)
    -0.97	-0.66
- Cc1cccc(NS(=O)(=O)c2c(C)noc2C)c1
    -3	1.1
- CCC(C)OC(=O)C1=C(C)NC2=C(C(=O)C(C(=O)OC)C(C)C2)C1c1ccccc1Br (stereo not drawn)
    -0.34	2.7
- CCn1c(C(=O)NCc2cccnc2)cc2sc(Cl)cc21
    -0.87	nt
- O=C(NCCN1CCOCC1)C1CCN(C(=O)C2(n3cccc3)CCCCC2)CC1
    -0.61	-0.31
- CCCOC(=O)c1[nH]c2c(c1C)C(=O)CC(c1ccco1)C2 (stereo not drawn)
    -0.83	0.77
- Cc1ccc(-n2cc(-c3ccccc3)c3c(N4CCC5(CC4)OCCO5)ncnc32)cc1
    -1.7	nt
- CC(C)n1c(=O)c2cn[nH]c2n(C(C)C)c1=O
    -1.5	1.4
- O=C(Nc1ccc(F)cc1F)c1cnc2sccn2c1=O
    -2	nt
- Cc1ccc(-c2n[nH]c(=O)c3c2CCCC3)cc1S(=O)(=O)N1CCOCC1
    -0.91	-1.3
- CCN(CC)CCn1c2ccccc2n2cc(C(C)(C)C)nc12
    -0.76	1.3
- Cc1oc2nc(C(=O)O)nc(N3CCOCC3)c2c1C
    -1.7	0.55
- N#C/C(=C\NCc1ccccn1)S(=O)(=O)c1ccc(Cl)cc1
    -0.85	nt
- CC(C)OCCCNC(=O)CN(C)c1nnc(N2CCCC2=O)s1
    -0.44	1.3
- CCn1c(=O)n(Cc2ccco2)c(=O)c2sc3ccccc3c21
    -2.6	-1.8
- COCCNc1ncnc2c1oc1nc3c(cc12)COC(C)(C)C3
    nt	-0.71
- Cn1c(SCc2ccccc2)nnc1-c1csc(Cc2ccsc2)n1
    0.51	nt
- CCCOC(=O)Cn1cnc2ccccc2c1=O
    -3.2	0.7
- COc1ccc2nc(NC(=O)c3cc4ccc5cccnc5c4[nH]3)sc2c1
    nt	-0.31
- CCOC(=O)c1c(C)oc2ccc(NS(=O)(=O)c3cc(C)ccc3C)cc12
    2.4	nt
- Cc1cc2n(n1)CCCN2CC(=O)N1CCCC1
    nt	0.23
- CCN(Cc1cc2cc(C)c(C)cc2[nH]c1=O)c1ccc(N2CCCC(O)C2)cc1 (stereo not drawn)
    1.4	-0.16
- Cc1ccc(-n2nnnc2SCC(=O)c2ccccc2)c(C)c1
    -1.1	nt
- CN1C(=O)Cc2cc(NC(=O)C3CCCCC3)ccc21
    nt	0.7
- O=C(CSc1cn(CC(=O)N2CCCC2)c2ccccc12)NCC1CCCO1 (stereo not drawn)
    nt	-0.12
- O=C(Nc1ccccc1)c1nc(-n2cnnc2)ccc1Br
    nt	0.37
- Brc1cccc(CN2CCN(Cc3ccncc3)CC2)c1
    0.57	0.68
- Cc1cc(C)n2nc3nc(N4CCOCC4)nc(-c4ccc(C(C)C)cc4)c3c2n1
    -0.43	nt
- CCOc1ccc(-c2noc(-c3nnn(-c4ccc(Br)cc4F)c3N)n2)cc1
    nt	0.94
- CC(Sc1nc2c(c(=O)[nH]1)CCCC2)C(=O)Nc1ccc(F)cc1 (stereo not drawn)
    -1.1	0.31
- CC(C)OC(=O)c1ccc([N+](=O)[O-])cc1
    1.4	nt
- CC(=O)Oc1ccc(C2=NN(C(C)=O)C(c3ccncc3)O2)c(OC(C)=O)c1 (stereo not drawn)
    nt	2.5
- CSc1nc(C)cc(Nc2ccc(C)c(C)c2)n1
    -0.05	2.1
- CSc1ccc(NC(=O)N2CCC(C(N)=O)(N3CCCCC3)CC2)cc1
    -1.3	nt
- CCCCN1CN(CCc2ccccc2)CNC1=S
    -2.4	nt
- CC(=O)N1CCN([C@H]2CS(=O)(=O)C[C@@H]2S(=O)(=O)c2cccs2)CC1
    0.26	-2.1
- O=C(NC1CC1)c1cc(-c2ccncc2)n[nH]1
    nt	2.7
- CC1=CC(C)C(C2OCCC(C)(C)O2)C(C)C1 (stereo not drawn)
    -0.25	nt
- CSc1nnc2c(n1)OC(c1ccc(C(=O)O)cc1)N(C(C)=O)c1ccccc1-2 (stereo not drawn)
    -1.8	4.3

# Source: PubChem
